Compound activity deposited in PubChem BioAssay by National Center for Advancing Translational Sciences (NCATS).
nsP2pro inh: inhibitors of chikungunya virus nsP2 protease | Potency, µM (doses to about 24.9 µM), without a hit: at the highest dose activity change, negative = inhibition, actives largely listed as inhibitors | actives 1.1% (n = 31,000) | Q8JUX6 | FRET peptide cleavage, nsP2pro, fluorescence 1 h | AID 1964107; active means well fitted inhibition curve with a large enough effect; inconclusive means small, poorly fitted or top-dose-only effect; inactive means no such curve, though single readings can be large or run the other way; note: nearly all actives have a fitted effect of over 60% in size; a reference inhibitor and vehicle were the controls
* hit, by the source's call; i = inactive; ? = inconclusive; & = joins results of further samples; [ ] = remark or other dose. % is set by controls: 0 for no effect and ±100 for the full control effect; potency is the fitted concentration of half-maximal effect.

The first 4 compounds, to show the layout:
canonical_smiles | nsP2pro inh
C[C@@H]1O[C@@H](O[C@@H]2[C@@H](O)[C@H](O[C@H]3[C@H](O[C@H]4CC[C@@]5(C)C(CC[C@]6(C)C5CC=C5[C@@H]7CC(C)(C)CC[C@]7(C(=O)O[C@@H]7O[C@H](CO)[C@@H](O)[C@H](O)[C@H]7O[C@@H]7O[C@@H](C)[C@H](O[C@@H]8O[C@@H](C)[C@H](O)[C@@H](O)[C@H]8O)[C@@H](O)[C@H]7O)CC[C@]56C)[C@@]4(C)CO)O[C@H](C(=O)O)[C@@H](O)[C@@H]3O)O[C@H](CO)[C@H]2O)[C@H](O)[C@H](O)[C@H]1O (stereo partly specified) | -7%[5.1 µM]
O=C(Nc1cccc(F)c1)c1ccc2oc(=O)n(Cc3ccccc3)c2c1 | -24%
COc1ccc(C(=O)NCCc2nc3ccccc3[nH]2)cc1 | 5%
CC(C)(C)OC(=O)NCCCNc1ncnc2ccc(-c3ccc4c(c3)OCO4)cc12 | i

The listing, repeating the preview:
canonical_smiles | nsP2pro inh
C[C@@H]1O[C@@H](O[C@@H]2[C@@H](O)[C@H](O[C@H]3[C@H](O[C@H]4CC[C@@]5(C)C(CC[C@]6(C)C5CC=C5[C@@H]7CC(C)(C)CC[C@]7(C(=O)O[C@@H]7O[C@H](CO)[C@@H](O)[C@H](O)[C@H]7O[C@@H]7O[C@@H](C)[C@H](O[C@@H]8O[C@@H](C)[C@H](O)[C@@H](O)[C@H]8O)[C@@H](O)[C@H]7O)CC[C@]56C)[C@@]4(C)CO)O[C@H](C(=O)O)[C@@H](O)[C@@H]3O)O[C@H](CO)[C@H]2O)[C@H](O)[C@H](O)[C@H]1O (stereo partly specified) | -7%[5.1 µM]
O=C(Nc1cccc(F)c1)c1ccc2oc(=O)n(Cc3ccccc3)c2c1 | -24%
COc1ccc(C(=O)NCCc2nc3ccccc3[nH]2)cc1 | 5%
CC(C)(C)OC(=O)NCCCNc1ncnc2ccc(-c3ccc4c(c3)OCO4)cc12 | i
CC1(O)CCC2C(C(=O)O)=COC(OC3OC(CO)C(O)C(O)C3OC(=O)/C=C/c3ccc(O)cc3)C21 (stereo unspecified) | 46%[10 µM]
CN(C)c1cccc(-c2cnc(N3CCC(c4ncc[nH]4)CC3)s2)c1 | i
Cc1cc(C)cc(OCC(=O)NCCc2nc3ccccc3[nH]2)c1 | -5%
CN1CCN(CCCNC(=O)c2cnn(-c3ccc(F)cc3)c2-n2cccc2)CC1 | -25%
CC(C)N1CCCC2(CCN(C(=O)c3cc(C#N)cn3C)C2)C1=O (stereo unspecified) | -7%
N#Cc1ccc(C[C@@H](NS(=O)(=O)c2ccc(C(=O)O)cc2)C(=O)O)cc1 | -3%
COc1ccccc1-c1nc(-c2cccc(C(=O)O)c2)no1 | -5%
COC(=O)[C@@H]1Cc2ncn(Cc3ccc(Cl)cc3)c2CN1Cc1ccc(N(C)C)cc1 | i
COc1cccc(CN2C[C@@H](CO)[C@H](NC(=O)C3CCC3)C2)c1 | -14%
C=C(C)CNc1ccc(C(C)C(=O)O)cc1 (stereo unspecified) | 8.8µM*
O=C1C(F)N([S+](=O)([O-])c2ccc3c(c2)OCCO3)CCN1[S+](=O)([O-])c1c(F)cccc1F (stereo unspecified) | i
CSCCC(=O)N1CCC(C2CCN(c3ncccn3)CC2)C1 (stereo unspecified) | 4%
O=c1[nH]c(=O)c2[nH]c(=O)[nH]c2[nH]1 | 2%[5.1 µM]
CCn1cc(S(=O)(=O)N2CCCC2Cc2noc(-c3ccccc3)n2)cn1 (stereo unspecified) | 1%
O=C(Nc1ccc(OC(F)(F)F)cc1)c1cc2ccccn2n1 | -18%
CO[C@H]1C=CO[C@@]2(C)Oc3c(C)c(O)c4c(O)c(c5c(c4c3C2=O)NC2(CCN(CC(C)C)CC2)N=5)=NC(=O)C(C)=CC=C[C@H](C)[C@H](O)[C@@H](C)[C@@H](O)[C@@H](C)[C@H](OC(C)=O)[C@H]1C | 11%
COc1cnc(NS(=O)(=O)c2ccc(N)cc2)nc1 | 3%
Cc1cc(NC(=O)Nc2cccc(-c3ccncc3)n2)ccc1Cl | 4%&-4%
CC1CCCN1C(=O)c1cc(-c2ccc(C(F)(F)F)cc2)nc2c1cnn2C (stereo unspecified) | -6%
CCc1ccc(NC(=O)Cn2c(=O)n(CCC(=O)N3CCc4ccccc4C3)c(=O)c3ccccc32)cc1 | 0%

Sorted by formula weight (ascending): some entries from above.
canonical_smiles | nsP2pro inh
COc1cnc(NS(=O)(=O)c2ccc(N)cc2)nc1 | 3%
Cc1cc(NC(=O)Nc2cccc(-c3ccncc3)n2)ccc1Cl | 4%&-4%
CO[C@H]1C=CO[C@@]2(C)Oc3c(C)c(O)c4c(O)c(c5c(c4c3C2=O)NC2(CCN(CC(C)C)CC2)N=5)=NC(=O)C(C)=CC=C[C@H](C)[C@H](O)[C@@H](C)[C@@H](O)[C@@H](C)[C@H](OC(C)=O)[C@H]1C | 11%

Further compounds:
canonical_smiles | nsP2pro inh
CC(C)CN(C1CCN(C)CC1)C1CN(C(=O)c2cccs2)C1 | i
Cc1ccc(S(=O)(=O)c2nc(-c3ccco3)oc2SCC(=O)c2ccc(Cl)cc2)cc1 | -15%
C=CC(C)(O)CC/C=C(/C)C(=O)OC1C(OC2OCC(OC3OC(CO)C(O)C(O)C3O)C(OC3OCC(O)C(OC4OC(C)C(O)C(O)C4O)C3O)C2O)COC(OC(=O)C23CCC(C)(C)CC2C2=CCC4C5(C)CCC(OC6OC(CO)C(OC7OC(CO)C(O)C(OC8OCC(O)C(O)C8O)C7O)C(O)C6O)C(C)(C)C5CCC4(C)C2(C)CC3O)C1O (stereo unspecified) | -12%[2.68 µM]
COC1C(O)C(C)OC(OC2C(CO)O[C@@H](O[C@@H]3CC4CCC5C(CC[C@]6(C)[C@@H](C7=CC(=O)OC7)CC[C@]56O)[C@@]4(C)[C@H](O)C3)C(O)C2O)C1O (stereo partly specified) | -2%[10 µM]
O=C(NC1CCCCC1)c1cc(-c2ccc(F)cc2)c2nncn2n1 | i
C=C[C@@H]1C2=CCOC(=O)C2=CO[C@H]1O[C@@H]1O[C@H](CO)[C@@H](O)[C@H](O)[C@H]1O | ?
CC1(C)CC2C=C(C(=O)O)C3COC(=O)C(O)(CO)C23C1 (stereo unspecified) | -26%
C[C@@H]1O[C@@H](O[C@@H]2[C@@H](O)[C@H](OCCc3ccc(O)c(O)c3)O[C@H](CO)[C@H]2OC(=O)/C=C/c2ccc(O)c(O)c2)[C@H](O)[C@H](O)[C@H]1O | ?
CCNC(=O)N[C@@H]1C=C[C@@H](c2c(C)nn(-c3ccc(C(F)(F)F)cc3)c2C)C1 | 11µM*
Cc1onc(-c2ccccc2Cl)c1C(=O)Oc1ccc(Cl)cc1Cl | -6%
Cc1nn(-c2ccccc2)c2c1N(CC(=O)N1CCN(c3cccc(Cl)c3)CC1)C(=O)CS2 | -16%
C=C(C)[C@@H]1CC[C@]2(C(=O)O)CC[C@]3(C)C(CCC4[C@@]5(C)C[C@@H](O)[C@H](O)C(C)(C)C5CC[C@]43C)C12 (stereo partly specified) | -6%[10 µM]
CN(Cc1cccc(N2CCN(Cc3c(Cl)ccc(Cl)c3Cl)CC2)c1)[S+](C)(=O)[O-] | -1%
N#Cc1c(-c2cccc(-c3no[n+]([O-])c3C#N)c2)no[n+]1[O-] | i
COC(=O)CC(C)(O)CC(=O)OCc1ccc(O[C@@H]2O[C@H](CO)[C@@H](O)[C@H](O)[C@H]2O)cc1 (stereo partly specified) | 37%[10 µM]
COCCCNC(=O)c1cnn(-c2ccc(F)cc2F)c1C1CCNCC1 | 52%[activator]
C#CCNC(=O)C[C@@H]1C[C@@H](C(C)C)[C@H](CNS(C)(=O)=O)C=C1C | -18%[39.2 µM]
Cc1ccc(-c2cnc(N3CCC(C(N)=O)CC3)s2)cc1 | -8%
COc1ccc(-c2noc(-c3cccn3CC(=O)NC(C)C)n2)cc1F | -6%
COc1ccc(C(CC(=O)NCc2ccccc2Cl)N2Cc3ccccc3C2=O)cc1OC (stereo unspecified) | -8%
C=C1C(=O)O[C@H]2[C@H]1[C@@H](OC(=O)/C(C)=C\C)C[C@]1(C)O[C@@H]1[C@H]1O[C@H]1C(=C)[C@H]2O | -4%
COC(=O)C1=COC(O[C@@H]2O[C@H](CO)[C@@H](O)[C@H](O)[C@H]2O)/C(=C\COC(=O)c2ccc(OC3OC(CO)C(O)C(O)C3O)c(OC)c2)C1CC(=O)OCCc1ccc(O)cc1 (stereo partly specified) | 15%[5.1 µM]
COc1ccccc1CNC(=O)Cc1c(C)c2cc3c(C)coc3c(C)c2oc1=O | -29%
Cc1cc(CO)c(O)c(C(=O)CC2CC(=O)NC(=O)C2)c1 | ?
CC(C)(C)OC(=O)Cc1nnc(-c2nc3ccccc3[nH]2)s1 | ?
O=C1c2ccccc2C(=O)N1c1cccc(O)c1 | 3%
O=C(NCc1ccccc1F)c1cc2ccccn2n1 | -21%
CC(=O)N1CCC(Cc2ccc(C(=O)N(C)Cc3cccnc3)cc2)CC1 | 1%
C=CCc1ccc(O)c(-c2ccc(O)c(CC=C)c2)c1 | -16%
C[N+]1(C)[C@@H]2CC[C@H]1CC(OC(=O)C(O)c1ccccc1)C2 (stereo partly specified) | -9%
COc1cc(OC)c(N(C)C(=O)c2nn(C)c3c2CSc2ccccc2-3)cc1Cl | -12%
CO[C@@H]1[C@@H](O)[C@@H](O[C@H]2CC[C@]3(C=O)C4CC[C@]5(C)[C@@H](C6=CC(=O)OC6)CC[C@]5(O)[C@@H]4CC[C@H]3C2)O[C@@H](C)[C@H]1O[C@@H]1O[C@H](CO[C@@H]2O[C@H](CO)[C@@H](O)[C@H](O)[C@H]2O)[C@@H](O)[C@H](O)[C@H]1O (stereo partly specified) | -5%[5.1 µM]
Cc1cc(C)c2oc(-c3ccc(C)c(NC(=O)/C=C/c4ccco4)c3)nc2c1 | ?
Cn1cnc(CN2CCNc3cc(Nc4ccccc4)ncc3C2)c1 | i
COc1ccc(C2c3c(n(C)c4ccccc34)C(=O)N2CC(=O)Nc2ccc(C)c(Cl)c2)cc1 (stereo unspecified) | -7%
O=C(NCc1ccc(F)cc1)[C@@H]1C[C@@H](c2cccc(C(F)(F)F)c2)N(CC2CCOCC2)C1 | i
CC(C)NC(=O)C[C@@H]1C[C@H]2O[C@H](CNC(=O)NCc3ccccc3)[C@@H](O)[C@H]2O1 | -10%[39.2 µM]
COCc1nc(CCNC(=O)NC2CCCCC2)no1 | 5%
COc1cccc(-n2nc(C(=O)O)cc2-c2ccc(C3CCCCC3)c(Cl)c2)c1 | 206%[activator]
O=C(Nc1nc(-c2ccccc2)cs1)c1ccncc1NS(=O)(=O)c1ccc(F)cc1Cl | i
O=C(c1cccnc1)N1CCN(c2nnc3ccc(Cl)cn23)CC1 | -19%
O=C(Nc1cccc(NC(=O)c2ccc(Br)cc2)c1)c1ccccc1 | -12%
Cc1cc(C)n(Cc2cc(C(=O)N(C)C(C)c3ccon3)n[nH]2)n1 (stereo unspecified) | 2%
Cc1ccc2cc(CN3CCN(CC(N)=O)CC3)c(-c3cccs3)nc2c1 | -5%
Cn1cnc([S+](=O)([O-])N2CCN(C(=O)N3CC4CC(C3)[C@H]3CCCC(=O)N3C4)CC2)c1 (stereo partly specified) | -11%
COc1ccc(C(=O)Nc2ccc(S(=O)(=O)N(Cc3ccccc3)c3ccccc3)cc2)cc1 | -7%
CCSc1nc2c([nH]c3ccccc32)c(=O)n1CC | -17%
COc1ccccc1NC(=O)CSc1nc2ccccc2c(=O)n1CCC(=O)NC1CCCCC1 | ?
COCCc1noc(CNC(=O)C2COc3ccccc3C2)n1 (stereo unspecified) | -7%
Cc1ccc(S(=O)(=O)Nc2cnccc2C(=O)Nc2nc(-c3nc4ccccc4s3)cs2)cc1 | i
CC(=O)NC(C(=O)OC1CCC(C)(C)C2CC=C3C(=O)OCC3(O)C12C)C(C)C (stereo unspecified) | -16%[10 µM]
Cc1cccc(N(C)C(=O)CN2C(=O)COc3ccc(S(=O)(=O)N4CCCCCC4)cc32)c1 | -8%
O=C(c1cn(CCOc2ccc(Cl)cc2)c2ccccc12)C1CCCCC1 | -21%
CC(=O)OC1C[C@@]2(C)[C@@H](CC[C@@H](C)[C@]23Cc2c(O)cc4c(c2O3)CNC4=O)C(C)(C)[C@@H]1O (stereo partly specified) | ?
COc1ccc(C2CC(=O)c3c([nH]c(C(=O)OCc4ccccc4)c3C)C2)cc1OC (stereo unspecified) | -17%
Cc1ccccc1-c1nc(CN2C(=O)CN=C(c3ccccc3)c3ccccc32)c(C)o1 | -15%

Further records.
canonical_smiles | nsP2pro inh
CCc1ccc(NCc2cc3cc(OC)c(OC)cc3n(CC(=O)Nc3cc(C)ccc3C)c2=O)cc1 | 10µM*
CCCCN(CC)CCNC(=O)Cn1cnc2sc(C)c(S(=O)(=O)N3CCN(c4ccccc4OC)CC3)c2c1=O | -15%
CC1(NC(=O)c2ccc(C#Cc3cccc(F)c3)cn2)COC1 | -3%
O=C(C1CCCN1[S+](=O)([O-])c1cccc(C(F)(F)F)c1)N1CCC(N2CCCC2=O)CC1 (stereo unspecified) | 4%
CO[C@H]1C[C@@H]2CC[C@@H](C)[C@@](O)(O2)C(=O)C(=O)N2CCCC[C@H]2C(=O)O[C@H]([C@H](C)C[C@H]2CC[C@@H](OP(C)(C)=O)[C@H](OC)C2)CC(=O)[C@H](C)/C=C(\C)[C@@H](O)[C@@H](OC)C(=O)[C@H](C)C[C@H](C)/C=C/C=C/C=C/1C | -20%
N#Cc1ccc(N2CCN(C(=O)COc3ccc4[nH]cc(CCN)c4c3)CC2)cc1 | 26%

Not all compounds are listed; the hit share may differ from the screen's.
